BJeLR lethal – BJeLR cell viability loss; AID 1554; BJeLR (HRASV12) viability, CellTiter-Glo ATP luminescence, 48 h; reference of the scale not given here; 300,000 tested, 0.17% active; inhibition, % (concentration not given with the values);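 active = replicate mean above 50%; inconclusive = above 50% but judged a plate artefact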;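 note: 50 nL library stock added to about 25 µL; numbers are from one replicate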
PrP UTR inh – suppresses PrP 5' UTR mRNA reporter expression | cell-based PrP 5' UTR mRNA reporter, plate reader | inhibition, % (concentration not given with the values) | 340,000 tested, 0.35% active;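 active = every replicate at 50% or more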;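 note: 0 = median of the neutral control wells; tested in H4 reporter cells; numbers are from one replicate; inactives centre near -14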
Mtb hypoxia inh – Mtb hypoxia fluorescent reporter inhibition | M. tuberculosis hypoxia-regulated fluorescent reporter, fluorescence | fluorescence inhibition, % (test concentration not listed) | 300,000 tested, 0.1% active;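 active = 35 to 45% if threefold the growth effect, above 45% if 1.5-fold the growth effect; inactive = the rest, general growth blockers included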;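 note: wells of about 50 µL received 100 nL stock; 0% = vehicle wells and 100% = reference inhibitor wells; whole bacteria with a GFP reporter of the hypoxia response; strong numbers were not always called active; many hits fall short of the cut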
Autofluor counter – flagged as autofluorescent in microsphere protease counterscreen; compound autofluorescence counterscreen, microsphere flow cytometry; stronger effect = higher value; fluorescence intensity (concentration not given with the values); 360,000 tested, 3.1% active; AID 624483;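 active = at least 3 SD above the mean of all compounds, about 16000 in these data; inconclusive = too few beads counted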;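 note: 100 nL of 1 mM stock went into each well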
Sa RN4220 lethal – S. aureus RN4220 growth inhibition. AID 1259311. inhibition, % (no concentration beside the values). OD600, 16 h. 330,000 tested, 0.33% active;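 active = z-score of -3 or lower and OD600 up to 0.18 on both plates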;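 note: plate controls were untreated cells for no effect and reference antibiotic for full effect; stock transfer was 100 nL into about 80 µL; one replicate is shown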
ugtP null kill – compounds lethal to S. aureus RN4220 ugtP deletion mutant | OD600 growth, 16 h; some inactives read as strong as hits | growth inhibition, % (concentration not given with the values) | 330,000 tested, 0.54% active | AID 1259309;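 active = z-score under -3 and OD600 up to 0.15 on both plates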;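 note: plate controls were untreated wells for no effect and antibiotic for full effect; wells of about 80 µL received 100 nL stock; the first replicate is given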
Mtb hypoxia inh growth – further read-out of Mtb hypoxia inh, marked with its call; growth inhibition, %; measured here: M. tuberculosis growth (absorbance);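 0% = vehicle and 100% = reference antibiotic; read after six days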
Starred values were filed as active, the others as inactive; ? = inconclusive; nt = no result given.

cpd	smiles	Mtb hypoxia inh	Autofluor counter	BJeLR lethal	Mtb hypoxia inh growth	ugtP null kill	PrP UTR inh	Sa RN4220 lethal
1	COc1cc(C)c(Cl)cc1S(=O)(=O)n1ccnc1	0.7	3538	-4.7	2.5	-2.0	-15.8	7.9
2	COC(=O)Cn1c(=NC(=O)CSCC(=O)Nc2cc(C)on2)sc2cc(C(=O)OC)ccc21	3.8	6406	-24.4	2.2	-6.9	-25.7	3.2
3	C#Cc1ccc([C@@H]2C=C(C(=O)NC3CC3)O[C@H](OCc3ccc(CO)cc3)C2)cc1	nt	4198	3.9	nt	nt	-26.9	nt
4	C=CCOc1ccc(C2/C(=C(/O)c3ccc4c(c3)CC(C)O4)C(=O)C(=O)N2CCCN2CCOCC2)cc1 (stereo unspecified)	-2.7	nt	3.9	-5.6	0.0	-10.7	0.7
5	COCc1nnc(NS(=O)(=O)c2ccc([N+](=O)[O-])cc2)s1	64.8*	?	-9.8	41.3*	-5.1	-30.9	5.9
6	N#Cc1ccc(-c2cccnc2)nc1SCc1ccc(Cl)c(Cl)c1	4.6	2682	-5.3	-4.7	-29.8	-13.2	-1.1
7	CC(C)c1cc(Br)ccc1OCCCN1C(=O)NC(C)(C)C1=O	-2.2	?	-1.3	-1.8	11.0	-9.1	11.0
8	Cc1ccc(OCC(=O)Nc2c(C)ccc3nsnc23)cc1	2.1	5617	16.2	-2.7	6.0	-22.6	8.9
9	COc1ccc(C(=O)Nc2ccccc2C(=O)Nc2cccc(C)n2)cc1	-11.2	4228	2.7	-5.5	-3.8	-36.9	-2.8
10	CCN(C1CCCCC1)S(=O)(=O)c1ccc(S(=O)(=O)N(CC(=O)Nc2ccccc2)C2CC2)cc1	2.5	10985	4.9	11.1	-5.7	5.6	0.3
11	Cc1ccc(Cn2c3ccccc3c3cn[nH]c(=O)c32)cc1	16.3	4986	5.6	8.5	2.7	-35.1	0.2
12	CCOc1ccc2[nH]c3c(c2c1)CNCC3	3.3	4186	-3.1	-1.0	-8.5	-11.5	-0.4
13	O=C1NN(c2ccccc2)C(=O)/C1=C/c1ccc(Sc2cccc3ccccc23)o1	-4.2	2576	-10.7	-10.8	-12.0	-20.1	1.9
14	CC(=O)Nc1ccc2c(c1)nc(CCNC(=O)c1ccco1)n2C	-4.7	6533	5.9	-7.8	12.6	-23.3	0.2
15	O=C1NCCn2ccc(=O)cc21	1.4	4141	6.3	5.9	2.3	-11.9	3.6
16	Cc1cccc(NS(=O)(=O)c2cc3c(cc2C)NC(=O)CO3)c1	2.5	4472	-19.3	-7.5	21.1	-15.7	23.8
17	COc1ccc(/C=N/Nc2nc(Nc3ccccc3)nc(N3CCCCC3)n2)c(OC)c1	nt	2380	2.0	nt	nt	-46.2	nt
18	Cc1cc(C)c(C(N)=O)c(NC(=O)Nc2ccccc2)n1	5.0	22860*	-3.0	4.8	0.3	-9.8	3.1
19	CCN(C(=O)CSc1nc(N)cc(=O)[nH]1)C1CCS(=O)(=O)C1 (stereo unspecified)	-0.9	3860	nt	0.7	-1.0	-25.6	-1.8
20	COc1ccc(F)cc1S(=O)(=O)n1cc(C)nc1-c1ccccc1	nt	4200	-14.8	nt	-2.7	-11.0	2.5
21	COc1ccc(CC/C(C)=N\NC(N)=O)cc1	nt	2961	-15.5	nt	nt	-6.2	nt
22	COc1ccc(C(=O)OCC(=O)NCCN2C(=O)CSC2=O)cc1	4.7	4343	-9.7	2.4	4.5	-7.2	1.8
23	Cc1ccc(OCCCN(C)C)c(Br)c1	15.0	2429	-3.6	9.0	-2.1	-18.4	5.7
24	CCc1noc(C)c1C(=O)Nc1ccc(C)c(S(=O)(=O)N2CCCCCC2)c1	0.3	4836	-5.5	-0.5	4.7	-9.4	-0.9
25	COc1ccc(C(=O)OCC(O)COC(=O)c2ccc(OC)cc2)cc1	12.8	3513	9.6	7.3	12.0	nt	6.6
26	NC(=O)CSc1nnc(-c2ccoc2)o1	3.9	9575	-10.9	8.9	-1.9	-38.9	3.8
27	O=S(=O)(c1ccccc1)N(Cc1ccccc1)c1ccccn1	12.1	10159	-1.8	12.0	4.4	-1.3	7.2
28	Cn1c(=O)c2c(SCc3ccccn3)nc(CC(C)(C)C)nc2n(C)c1=O	-1.4	5141	-0.2	16.9	6.7	-25.9	8.7
29	CCS(=O)(=O)C(=C1Nc2ccccc2N1)S(=O)(=O)CC	nt	4990	-3.6	nt	-6.7	-2.2	0.2
30	CCOC(=O)c1sc2ncn(/N=C/c3ccc(O)cc3)c(=O)c2c1C	nt	4661	3.6	nt	nt	-14.6	nt

Nine entries from above, in transposed form:
22. COc1ccc(C(=O)OCC(=O)NCCN2C(=O)CSC2=O)cc1
23. Cc1ccc(OCCCN(C)C)c(Br)c1
24. CCc1noc(C)c1C(=O)Nc1ccc(C)c(S(=O)(=O)N2CCCCCC2)c1
25. COc1ccc(C(=O)OCC(O)COC(=O)c2ccc(OC)cc2)cc1
26. NC(=O)CSc1nnc(-c2ccoc2)o1
27. O=S(=O)(c1ccccc1)N(Cc1ccccc1)c1ccccn1
28. Cn1c(=O)c2c(SCc3ccccn3)nc(CC(C)(C)C)nc2n(C)c1=O
29. CCS(=O)(=O)C(=C1Nc2ccccc2N1)S(=O)(=O)CC
30. CCOC(=O)c1sc2ncn(/N=C/c3ccc(O)cc3)c(=O)c2c1C
screen / no. | 22 | 23 | 24 | 25 | 26 | 27 | 28 | 29 | 30
Mtb hypoxia inh | 4.7 | 15.0 | 0.3 | 12.8 | 3.9 | 12.1 | -1.4 | nt | nt
Autofluor counter | 4343 | 2429 | 4836 | 3513 | 9575 | 10159 | 5141 | 4990 | 4661
BJeLR lethal | -9.7 | -3.6 | -5.5 | 9.6 | -10.9 | -1.8 | -0.2 | -3.6 | 3.6
Mtb hypoxia inh growth | 2.4 | 9.0 | -0.5 | 7.3 | 8.9 | 12.0 | 16.9 | nt | nt
ugtP null kill | 4.5 | -2.1 | 4.7 | 12.0 | -1.9 | 4.4 | 6.7 | -6.7 | nt
PrP UTR inh | -7.2 | -18.4 | -9.4 | nt | -38.9 | -1.3 | -25.9 | -2.2 | -14.6
Sa RN4220 lethal | 1.8 | 5.7 | -0.9 | 6.6 | 3.8 | 7.2 | 8.7 | 0.2 | nt

(further entries)
cpd	smiles	Mtb hypoxia inh	Autofluor counter	BJeLR lethal	Mtb hypoxia inh growth	ugtP null kill	PrP UTR inh	Sa RN4220 lethal
31	COC(=O)c1ccc(/C=N/NC(=O)c2ccccc2Cl)cc1	nt	1893	1.5	nt	nt	-21.5	nt
32	COc1cc(F)c(C2=CC(=O)CC(c3ccc(Cl)cc3)C2)cc1F (stereo unspecified)	10.6	nt	nt	6.7	16.5	nt	-6.5
33	Cn1cnnc1Sc1ccc(C(F)(F)F)cc1[N+](=O)[O-]	4.9	3393	6.7	4.1	1.1	-21.3	6.5
34	Cc1nc2ccccc2c(=O)n1-c1ccc(NS(=O)(=O)c2ccccc2)cc1	0.1	4492	4.6	2.0	6.7	-21.3	4.5
35	Cc1sc2ncnc(NCc3cccnc3)c2c1C	-2.7	2574	-5.7	-0.1	-1.7	-19.6	3.3
36	CCOC(=O)N1CCN(C(=O)COc2ccc(Cl)c(C)c2)CC1	-5.3	2618	-5.8	-1.0	-0.5	-5.4	0.6
37	Cc1ccccc1Cn1nc(C)c(NC(=O)C(F)(F)F)c1C	-10.8	9225	8.0	1.5	2.7	-23.3	4.2
38	CC(OC(=O)c1ccc(NS(=O)(=O)c2ccc3[nH]c(=O)[nH]c3c2)cc1)C(=O)Nc1cccc(Cl)c1Cl (stereo unspecified)	13.8	3436	-2.7	5.9	18.3	2.5	-0.4
39	Cc1nn(CC(=O)N2CCCc3ccccc32)c(C)c1[N+](=O)[O-]	16.9	2049	-7.5	-0.8	5.8	-2.0	5.7
40	CCOC(=O)c1ccc(/C=C2/C=C(c3ccccc3)N(c3ccc(Cl)c(C(=O)O)c3)C2=O)cc1	5.6	10631	8.6	1.5	-3.1	-10.6	8.2
41	Cc1ccc(S(=O)(=O)N(CCCc2c(C)nc[nH]c2=O)c2ccccc2)cc1	2.4	3710	nt	2.4	-4.5	-9.5	8.6
42	O=C(COc1cccnc1[N+](=O)[O-])Nc1ccccc1Sc1ccccc1	-2.8	7055	-3.5	-0.8	0.1	-1.8	3.4
43	N#Cc1ccc(C(=O)OCCCc2cc3ccccc3c(=O)o2)cc1	-5.4	3996	nt	3.1	-12.6	-20.0	-2.4
44	COCCN(CC(=O)Nc1ccc(F)cc1)S(=O)(=O)c1ccc(S(=O)(=O)N2CCCC2)cc1	nt	3844	-3.8	nt	6.1	-24.2	0.8
45	Cc1cc(C)c2c(N)c(C(=O)Nc3ncc(C)s3)sc2n1	6.8	3188	nt	5.5	-0.4	89.2*	-2.2
46	C/C(CC(=O)Nc1ccc2c(c1)OCCO2)=N\NC(=O)C(=O)Nc1ccccc1C	nt	2065	-5.8	nt	nt	3.1	nt
47	Cc1ccc(C(=O)OCC(=O)N2C(C)CCCC2C)cc1S(=O)(=O)N1CCOCC1 (stereo unspecified)	2.8	4176	-3.1	0.5	8.7	4.1	1.6
48	CCc1ccc(Cc2cnc(NC(=O)C3=NCCN3)s2)cc1	8.8	4033	-5.8	-3.3	-1.2	-6.8	0.5
49	Cc1ccccc1CSCC(=O)c1c(N)n(CC(C)C)c(=O)n(C)c1=O	nt	2407	-0.1	nt	-8.1	-15.4	2.4
50	COc1cccc2c(=O)n(CC(=O)N3CCCCC3)ccc12	6.5	6554	1.4	2.6	4.4	-10.2	7.3
51	COc1ccccc1NS(=O)(=O)c1cc(NC(=O)c2ccc(Cl)nc2)ccc1N1CCCC1	-3.2	3981	nt	7.6	-10.5	-4.0	3.1
52	COc1ccc(/C=C2\SC(=N)N(c3nccs3)C2=O)cc1OC	-7.0	2770	17.9	-1.0	42.1	9.3	49.5
53	COc1ccc(N=Nc2nc3ccc(Br)cc3n2C)cc1	nt	4074	-4.8	nt	-7.3	-69.4	-1.1
54	Cc1onc(-c2ccccc2)c1C(=O)OCC(=O)N(CC(C)C)c1c(N)n(Cc2ccccc2)c(=O)[nH]c1=O	-4.5	?	-1.2	0.5	-3.8	-16.8	-1.5
55	CC(C)OC(=O)c1cccc(C(=O)OCc2ccco2)n1	6.9	3100	-7.7	4.5	2.7	-19.5	3.6
56	Cc1cc(NN)nc(NS(=O)(=O)c2ccccc2Cl)n1	-0.9	4461	-2.3	5.9	0.7	-25.9	10.1
57	CCC(=O)c1ccc(OC(=O)Cc2ccc(OC)cc2)cc1	5.9	nt	6.4	-1.5	5.9	-3.9	1.4
58	Fc1ccccc1-c1nc(-c2ccc(Br)o2)no1	-9.9	3860	3.7	0.4	-0.4	-46.3	1.1
59	CSc1ncc(Cl)c(C(=O)Nc2ccc(S(=O)(=O)N3CCOCC3)cc2)n1	nt	5067	-1.1	nt	0.5	0.8	-4.6
60	O=C(CCn1cnnn1)N1CCCC(Nc2ccc(F)c(F)c2)C1 (stereo unspecified)	6.1	5799	-1.8	16.5	-0.3	6.9	-1.4
61	O=C(N/N=C/c1ccc2c(c1)OCO2)c1sc2cccc(Cl)c2c1Cl	nt	2116	-1.1	nt	nt	9.6	nt
62	Cc1ccc(S(=O)(=O)N2CCN(C(=O)CCC(=O)NCCc3ccc(F)cc3)CC2)cc1	3.5	4828	1.0	11.3	3.9	-41.7	7.4
63	CCC(=O)N1CCc2cc(OC)c(OC)cc2C1COc1ccc(F)cc1 (stereo unspecified)	0.7	3092	-0.8	-7.3	-2.8	-6.5	-0.8
64	O=C(CCc1nc2ccccc2s1)Nc1ccccc1	9.0	2906	-15.0	-7.9	6.4	-15.4	3.3
65	CN(Cc1ccc(Cl)cc1Cl)C(=O)c1cccc(S(=O)(=O)N2CCN(c3ccccc3)CC2)c1	7.0	6745	1.2	5.4	5.5	-24.1	2.1
66	COc1ccc2[nH]c3c(=O)n(CCCCC(=O)N4CCC(C(N)=O)CC4)c(=S)[nH]c3c2c1	0.0	20373*	5.8	4.2	1.8	23.8	0.5
67	Clc1ncnc2[nH]ccc12	12.4	3100	nt	6.6	19.2	-14.1	6.9
68	O=C(Nc1cccc(-n2cccn2)c1)C1CCCN(Cc2cc3ccccc3[nH]2)C1 (stereo unspecified)	1.4	5581	-1.9	5.7	-5.2	3.8	-4.0
69	Cn1cnnc1SCC(=O)N1N=C2/C(=C/c3ccco3)CCCC2C1c1ccco1 (stereo unspecified)	5.6	2758	16.6	-2.3	2.0	-17.6	16.2

Compound activity: PubChem BioAssay, several laboratories
